# Source: PubChem (National Center for Advancing Translational Sciences (NCATS))
# VACV mCherry inh = vaccinia inhibition (mCherry reporter) | Potency, µM (titrated, usually from 36.5 µM), for inactives: at the highest dose activity change, negative = inhibition, hits mostly inhibitors | 0.63% of 310,000 active | Vaccinia virus mCherry reporter infection, fluorescence; about a quarter of the inactives have no number | AID 720579; active = well fitted inhibition curve with a large enough effect; inconclusive = small, poorly fitted or top-dose-only effect; inactive = no such curve, though single readings can be large or run the other way; tested in A549 cells; further: nearly all actives have a fitted effect of over 35% in size; inactives centre near -10
# Vaccinia Venus = inhibitors of vaccinia virus (Venus reporter). Vaccinia virus Venus reporter expression, fluorescence. Potency, µM (titrated, usually from 36.5 µM), inactives show top-dose activity change, negative = inhibition, actives largely listed as inhibitors. 0.46% of 330,000 active; active means well fitted inhibition curve with a large enough effect; inconclusive means small, poorly fitted or top-dose-only effect; inactive means no such curve, though single readings can be large or run the other way; tested in A549 cells; further: nearly all actives have a fitted effect of over 30% in size; inactives centre near -10
# Starred values were filed as active, the others as inactive; i = inactive; ? = inconclusive; . = not tested or not shown; & = joins results of further samples; [ ] = dose if it differs, or a comment. On the % scale 0 is the no-effect control and ±100 the full control effect; potency means the concentration at half of the fitted maximal effect. An unsorted share of the library; overall some 0.87% were active at least once.
canonical_smiles	VACV mCherry inh	Vaccinia Venus
COCCNC(=O)c1c[nH]c2cc(OC)c(OC)cc2c1=O	i	-6%
COCCN1C[C@@H](CO)O[C@@H](n2cnc3c(NCc4ccc(F)cc4)ncnc32)C1	-10%	2%
COc1ccccc1-c1ocnc1C(=O)N1CCN(S(=O)(=O)c2ccc(NC(C)=O)cc2)CC1	-17%	-9%
CC1CCC(CN2CCN=C2N(C)C)CC1 (stereo not given)	-8%	-28%
CCCc1nc2c(C)cc(Br)cn2c1Cc1ccsc1	i	-8%
COC(=O)c1ccccc1NC(=O)C(=O)NCc1ccncc1	i	?
CCOC(=O)c1cc(OC(=O)c2cccs2)n(-c2ccccc2)n1	-3%	-10%
COc1ccc(-c2cc(Cl)cc3c(=O)c4ccccc4n(C)c23)cc1F	-15%	-21%
CS(=O)(=O)N(CCc1ccccc1)CC(=O)NCc1cccnc1	.	-26%
CS(=O)(=O)N1CCC2(CC1)OCCN2S(=O)(=O)c1ccccc1	i	-2%
CC1=C(C(=O)Nc2ccc(C)cc2)C(c2ccccc2Cl)n2nnnc2N1 (stereo not given)	-13%	-1%
COc1ccc(Cl)cc1-n1c(CCC(=O)O)ccc1-c1ccc(C)cc1	-8%	6%
COc1ccc(CCNCCC(=O)Nc2c(C)cc(C)cc2C)cc1OC	-16%	-8%
COc1ccc(CN(C)CC(=O)NC(C)c2ccccc2)cc1OC (stereo not given)	-1%	0%
Cn1c(C(=O)O)c(CC(=O)Nc2ccccc2F)c2ccccc21	i	-11%
CCc1nccn1S(=O)(=O)c1ccc(C)c(C)c1	.	-11%
CCOC(=O)/C=C(/C)N1N=C(c2ccc(OC)cc2)CC1c1cccc([N+](=O)[O-])c1 (stereo not given)	-18%	-13%
Nc1ncnc2c1ncn2[C@@H]1O[C@H](COP(=O)(O)CP(=O)(O)OP(=O)(O)O)[C@@H](O)[C@H]1O	0%	-6%
CC(C(=O)Nc1nc2ccccc2s1)n1cc([N+](=O)[O-])cn1 (stereo not given)	-9%	-6%
COc1ccc([N+](=O)[O-])cc1NC(=O)c1cc(C)c(C)o1	-14%	-14%
CSc1cc(/C=N/O)c(SC)s1	.	-15%
Brc1ccc(CNc2cc3c(cc2Br)OCCO3)cc1	-4%	3%
Cc1cccc(C)c1NC(=O)CN(C)C(=O)C(c1ccccc1)c1ccccc1	-4%	-6%
CC1(C2CC2)NC(=O)N(CC(=O)N2CCN(c3ccccc3F)CC2)C1=O (stereo not given)	-23%	-20%
O=C(c1ccco1)N1CCN(C(=O)c2ccccc2Oc2ccccc2)CC1	-10%	-7%
C/C(=N\NC(=O)c1c(Cl)c(C)nn1C)c1cccc(NC(=O)COc2ccc(Cl)cc2)c1	-5%	-23%
Cc1cc2c(cc1C)NC(=O)CC(c1ccccc1)=N2	i	-6%
CS(=O)(=O)N1CCCCC1c1cc(C(=O)Nc2cccc(C#N)c2)no1 (stereo not given)	i	7%
Cc1cc(C)c(/C=C/c2onc(C)c2S(=O)(=O)N2CCC(C(=O)NCC(C)c3ccccc3)CC2)c(C)c1 (stereo not given)	-11%[7.34 µM]	-9%[7.34 µM]
CCOC(=O)Cn1nc(/C=C/c2ccccc2)ccc1=O	.	-7%
COc1cc(N2C(=O)C=CC2=O)c(OC)cc1Cl	-1%	-22%
Cc1ncsc1CCOC(=O)c1cccnc1	-15%	-3%
O=C(N/N=C/c1ccc2c(c1)OCO2)c1ccc2ccccc2n1	i	16%
CCCc1nnc(NC(=O)OCC)s1	2%	-2%
CCC1(CC)C(=O)N=C2c3ccccc3C(=O)N21	.	15%
Oc1ccc2n[nH]nc2c1	-10%	4%
CCN(CC)C(=O)Oc1ccc2c(=O)c(-c3ccccc3)coc2c1	-11%	-30%
Cc1cc(=O)c2c(O)c3c(O)cc(O)c4c5c(O)cc(O)c6c(O)c7c(=O)cc(C)c8c1c2c(c34)c(c65)c78	7%	-1%
O=c1c2ccccc2c(C=Nc2ccc(S(=O)(=O)N3CCCCC3)cc2)c(O)n1-c1ccc(Cl)cn1	-5%	-4%
CCN(CC)C(=O)CSc1nc2ccc(NC(=O)CSc3nccn3C)cc2s1	?	?
Cc1cccc(NC(=O)CSc2nncn2N)c1C	i	1%
COc1cc(C(=O)NCc2nnc(SCC(=O)Nc3cc(C)cc(C)c3)o2)cc(OC)c1OC	-18%	-10%
O=c1c2ccccc2nc(-c2ccc([N+](=O)[O-])cc2)n1O	-11%	-12%
Cc1ccc(-c2nc3c(Cl)cc(C(F)(F)F)cn3c2Cc2cccc(Cl)c2)cc1	34%[activator]	6%
CCN1C(=O)/C(=C2/Sc3ccc(OC)cc3N2C)SC1=Nc1ccc(OC)cc1	-1%	1%
Cc1cc(O)cc(O)c1C(=O)Cc1cscn1	.	-25%
Cc1ccc(S(=O)(=O)NN2C(=O)/C(=C/c3ccc(C(=O)O)cc3)SC2=S)cc1	-14%	1%
O=C(O)CCCC(=O)N1N=C(c2ccccc2)CC1c1ccc2c(c1)OCO2 (stereo not given)	-18%	-9%
CCCCN1C(=S)NC[C@@H]1Cc1ccccc1	-12%	-12%
Cc1nnc(SCC2=C(C(=O)O)N3C(=O)C(NC(=O)Cn4nc(C)c(Cl)c4C)C3SC2)s1 (stereo not given)	i	-1%
CC(=O)Nc1ccc(N)cc1	-1%	-10%
CCN(CC)C(=O)c1ccc2c(c1)N(Cc1ccc(C(F)(F)F)cc1)C(=O)c1ccccc1S2	-18%	-16%
CCCCCCn1c(=O)[nH]c2nc3cc(N)ccc3nc2c1=O	i	46%[activator]
CN1C(=O)NC(=O)/C(=C\c2ccc([N+](=O)[O-])o2)C1=O	15%	134%[activator]
O=C(Cn1c(=O)n(CC2CS2)c2ccccc21)N1CCCCC1 (stereo not given)	?	?
CCN(CC(=O)NCCCN1CCOCC1)S(=O)(=O)c1ccc(F)cc1	5%	2%

# 19 compounds from above, ordered by SMILES length, lowest first.
canonical_smiles	VACV mCherry inh	Vaccinia Venus
Oc1ccc2n[nH]nc2c1	-10%	4%
CC(=O)Nc1ccc(N)cc1	-1%	-10%
Cc1cc(O)cc(O)c1C(=O)Cc1cscn1	.	-25%
CCCCN1C(=S)NC[C@@H]1Cc1ccccc1	-12%	-12%
CCC1(CC)C(=O)N=C2c3ccccc3C(=O)N21	.	15%
CCCCCCn1c(=O)[nH]c2nc3cc(N)ccc3nc2c1=O	i	46%[activator]
O=C(Cn1c(=O)n(CC2CS2)c2ccccc21)N1CCCCC1 (stereo not given)	?	?
CCN(CC)C(=O)Oc1ccc2c(=O)c(-c3ccccc3)coc2c1	-11%	-30%
CCN(CC(=O)NCCCN1CCOCC1)S(=O)(=O)c1ccc(F)cc1	5%	2%
CCN(CC)C(=O)CSc1nc2ccc(NC(=O)CSc3nccn3C)cc2s1	?	?
CN1C(=O)NC(=O)/C(=C\c2ccc([N+](=O)[O-])o2)C1=O	15%	134%[activator]
O=C(O)CCCC(=O)N1N=C(c2ccccc2)CC1c1ccc2c(c1)OCO2 (stereo not given)	-18%	-9%
CCN1C(=O)/C(=C2/Sc3ccc(OC)cc3N2C)SC1=Nc1ccc(OC)cc1	-1%	1%
Cc1ccc(-c2nc3c(Cl)cc(C(F)(F)F)cn3c2Cc2cccc(Cl)c2)cc1	34%[activator]	6%
Cc1ccc(S(=O)(=O)NN2C(=O)/C(=C/c3ccc(C(=O)O)cc3)SC2=S)cc1	-14%	1%
CCN(CC)C(=O)c1ccc2c(c1)N(Cc1ccc(C(F)(F)F)cc1)C(=O)c1ccccc1S2	-18%	-16%
Cc1nnc(SCC2=C(C(=O)O)N3C(=O)C(NC(=O)Cn4nc(C)c(Cl)c4C)C3SC2)s1 (stereo not given)	i	-1%
O=c1c2ccccc2c(C=Nc2ccc(S(=O)(=O)N3CCCCC3)cc2)c(O)n1-c1ccc(Cl)cn1	-5%	-4%
Cc1cc(=O)c2c(O)c3c(O)cc(O)c4c5c(O)cc(O)c6c(O)c7c(=O)cc(C)c8c1c2c(c34)c(c65)c78	7%	-1%

# (listing goes on)
canonical_smiles	VACV mCherry inh	Vaccinia Venus
O=[N+]([O-])c1ccc(/C([O-])=C(/C(=S)Nc2ccccc2F)[n+]2ccccc2)cc1	i	-9%
COc1ccc(/C=C(/NC(=O)c2ccccc2)C(=O)NCC2CCCO2)cc1 (stereo not given)	-13%	-2%
COc1ccc(-c2nnc3sc(COc4ccc(C)cc4)nn23)cc1	.	-5%
CSc1ccccc1C(=O)NCCCn1ccnc1	i	-16%
Fc1ccc(-c2cn3cc(Cc4ccccc4)sc3n2)cc1	-4%[7.34 µM]	1%[7.34 µM]
O=C(O)CCCCCN1C(=O)C(=O)/C(=C(/O)c2ccccc2)C1c1ccccc1 (stereo not given)	-1%	6%
CCOc1cc(N2CCOCC2)c(OCC)cc1NC(=O)c1oc2ccccc2c1C	-1%	-6%
O=C(O)C1C2C=CC(C3CC23)C1C(=O)NCCc1ccccc1 (stereo not given)	.	-6%
CCCOc1cc(N(CC)CC)ccc1/C=C(/C#N)c1nc2ccc(C)cc2[nH]1	i	104%[activator]
C/C=C(\C)CN1CCC(Oc2cc(C(=O)NC3CC3)ccc2OC)CC1	-11%	-10%
O=C(N/N=C/c1ccc(Cl)s1)c1ccccc1[N+](=O)[O-]	-7%	-21%
C=CCc1ccc2c(c1)OCO2	-6%	-8%
COC(=O)c1ccc(OCC(O)CN2CCC(C)CC2)cc1 (stereo not given)	i	-2%
COc1ccc(CCNC(=O)C2CCN(S(=O)(=O)c3cnc[nH]3)CC2)cc1OC	-7%	3%
COc1ccc(C(=O)Cn2c(N3CCCCC3)nc3c2c(=O)n(C)c(=O)n3C)cc1OC	-5%	-9%
COc1cccc2c1cc1c(=O)n(CC(=O)N3CCN(c4ccc(Cl)cc4)CC3)nc(C)n12	-12%	0%
Cc1cc(NC(=O)c2ccccc2)sc1C	-22%	-17%
CC(C)(C)OC(=O)N1CCC[C@H]1c1nnc(SCc2c(F)cccc2Cl)o1	-29%	-11%
CC(C)C1Cc2c(sc(NC(=S)NC(=O)c3ccccc3)c2C#N)CO1 (stereo not given)	i	-11%
CCc1ccc(/C(C)=N/NC(=O)CNC(=O)/C=C/c2ccco2)cc1	i	-6%
CCc1ccc(OCC(=O)NNC(=O)C2CCN(c3ncnc4sc(C)c(C)c34)CC2)cc1	i	-14%
O=C(Nc1cccc(OC(=O)N2CCCCC2)c1)N1CCCCC1	.	-19%
CCC(Oc1cc(Cl)ccc1Cl)C(=O)NN1C(=O)C2C3CCC(C3=C(C)C)C2C1=O (stereo not given)	?	?
CCCOc1ccc(S(=O)(=O)NCc2ccc(OC)cc2)cc1	.	?
CC(=O)Oc1ccccc1C(=O)O	-12%&-7%	-8%&-1%
CCN(CC)c1ccc(-n2c(O)c(C=C3N=c4ccccc4=N3)sc2=S)cc1	-5%	4%
Cc1ccsc1C(=O)N1CCCC(N(C)Cc2ccccc2)C1 (stereo not given)	-5%	6%
CCCCC/C(=N\NC(=O)Nc1ccccc1)c1ccccc1	-11%	-17%
COc1cccc(-c2c(C(=O)N/N=C/C3CC=CCC3)nnn2-c2nonc2N)c1 (stereo not given)	-3%[7.34 µM]	0%[7.34 µM]
c1ccc(COc2cccc(-c3cc4nc(NCCCn5ccnc5)ccn4n3)c2)cc1	7%	2%
COc1cccc(CNC(=O)c2ccc(-c3nc(COc4ccccc4)c(C)o3)cc2)c1	-22%	-23%
O=C(Nc1ccc(S(=O)(=O)N2CCC(C(=O)NC3CCCCC3)CC2)cc1)c1ccco1	-24%	-13%
N[C@@H](Cc1ccc(O)cc1)c1nnc([C@H](CC(=O)O)NC(=O)C2CCNCC2)o1	i	-10%
Cc1ccc2nc(NC(=O)CSc3nccn3Cc3ccc(F)cc3)sc2c1	-7%	-2%
Cc1cc(C)nc(/N=C2\NC(=O)CC(C(=O)O)N2c2ccc(Cl)cc2Cl)n1 (stereo not given)	-11%	-7%
COc1ccc(NC(=S)Nc2cccc(S(=O)(=O)N3CCCCC3)c2)cc1	-1%	-3%
